gsp antagonist: qHTS for Antagonists of gsp, the Etiologic Mutation Responsible for Fibrous Dysplasia/McCune-Albright Syndrome: qHTS; Potency, µM (highest dose often 76.9 µM), without a hit: at the top dose activity change, negative = inhibition, hits mostly inhibitors; gsp-mutant cells, cAMP HTRF, 30 min; control for the full effect not named in the record; actives 0.4% (n = 340,000); active = falling curve of any shape with a large fitted effect; inconclusive = falling curve, mostly with a smaller effect; inactive = flat or rising curve; cell line not stated here;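 further: intracellular cAMP measured with PDE inhibitor Ro 20-1724 present during compound exposure; potency means the concentration at half of the fitted maximal effect; on the % scale 0 is the no-effect control and ±100 the full control effect; nearly all actives have a fitted effect of over 65% in size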
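HTRF cAMP read-out (cAMP-d2 plus anti-cAMP antibody-K in lysis buffer, 30 min RT). Before lysis, cells are exposed to compounds with […] for 30 min at 37C in DPBS containing Ca/Mg, BSA and Tween 20.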
TRPML1 agonist: qHTS for Agonists of the Human Mucolipin Transient Receptor Potential 1 (TRPML1). TRPML1-expressing cells, Ca2+ dye fluorescence, FDSS; host cell line not named in the record; reference of the full effect not given here. Mucolipin-1 (Homo sapiens), Q9GZU1. activation, % (concentration not given with the values). AID 624414, 2012. actives 0.12% (n = 410,000); in the data active = activation above about 50%; inconclusive = about 30% to 50%; inactive = below about 30%; further: 0% is about no effect; the text of the record puts the active cut at 80%
Target sequence (Q9GZU1 whole entry, looked up): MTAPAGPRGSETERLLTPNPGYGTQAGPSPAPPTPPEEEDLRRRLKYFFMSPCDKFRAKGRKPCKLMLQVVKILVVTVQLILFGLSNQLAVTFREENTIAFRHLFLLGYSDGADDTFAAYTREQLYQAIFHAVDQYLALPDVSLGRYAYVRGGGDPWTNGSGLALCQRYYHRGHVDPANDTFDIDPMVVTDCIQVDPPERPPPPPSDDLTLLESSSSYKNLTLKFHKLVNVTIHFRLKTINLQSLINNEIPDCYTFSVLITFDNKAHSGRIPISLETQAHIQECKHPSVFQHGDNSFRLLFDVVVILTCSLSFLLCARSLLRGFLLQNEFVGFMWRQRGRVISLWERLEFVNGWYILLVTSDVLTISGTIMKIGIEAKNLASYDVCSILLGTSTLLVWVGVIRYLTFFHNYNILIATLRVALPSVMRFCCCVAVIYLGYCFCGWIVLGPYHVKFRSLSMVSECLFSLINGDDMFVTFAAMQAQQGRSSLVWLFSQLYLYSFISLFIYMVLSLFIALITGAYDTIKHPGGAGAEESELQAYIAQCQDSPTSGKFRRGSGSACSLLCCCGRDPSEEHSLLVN
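Tetracycline-induced TRPML1-DL cells are seeded and incubated overnight before loading with a no-wash Ca2+ dye and quencher. Agonist activity is taken from the 110 s fluorescence read following compound pin-transfer on an FDSS, before EC80 54-4 challenge.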
gsp agonist: qHTS for Agonist of gsp, the Etiologic Mutation Responsible for Fibrous Dysplasia/McCune-Albright Syndrome: qHTS | gsp mutant cells, cAMP HTRF, 30 min; control for the full effect not named in the record | Potency, µM (titrated, usually from 76.9 µM), without a hit: at the highest dose activation (cAMP increase), most hits filed as activators | actives 0.13% (n = 340,000); active = well fitted activation curve with a large enough effect; inconclusive = small, poorly fitted or top-dose-only effect, or another doubt; inactive = no such curve, though single readings can be large or run the other way; cell line not stated here;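 further: phosphodiesterase inhibitor Ro 20-1724 added with compounds to block cAMP breakdown; potency means the concentration at half of the fitted maximal effect; nearly all actives have a fitted effect of over 60% in size; about a fifth of the inactives were tested at one dose only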
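Cells stably selected in G418 were plated at 2000/well, grown 16-24 hr, then given compounds in DMSO with the PDE inhibitor […] (300 uM solution added) for 30 min at 37C; cAMP was read by HTRF.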
TRPML1 blocker: qHTS for Inhibitors of the Human Mucolipin Transient Receptor Potential 1 (TRPML1). TRPML1-inducible cells, Ca2+ dye fluorescence, FDSS; hits give low values; inhibition of EC80 agonist-evoked calcium signal. activity change, negative = inhibition, % (concentration not given with the values). actives 0.02% (n = 390,000). AID 624415, 2012; in the data active means activity change below about -50%; inconclusive means about -30% to -50%; inactive means above about -30%;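 further: stimulus is agonist 54-4 at its EC80 concentration; on the % scale 0 is the no-effect control and ±100 the full control effect; compound concentration not given in the record; the text of the record puts the active cut at -80%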
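Calcium fluorescence in TRPML1-DL cells induced overnight with Tet: a 110 s read after compound pin addition, then a 110 s antagonist read after challenge with 54-4 at 4 uM final (EC80).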
Menin MLL FP FL: qHTS Assay for Inhibitors Targeting the Menin-MLL Interaction in MLL Related Leukemias: Competition With Fluorescein Labeled MLL-derived Peptide | 290,000 tested, under 10 active | FP activity change, % at 61.4 µM | Fluorescence polarization, fluorescein-MLL peptide displacement from menin | AID 1766, 2009; inconclusive = falling polarisation curve, or a change in total fluorescence; inactive = total fluorescence flat and polarisation flat or rising; no compound was filed as active; the % refers to the polarisation; negative = inhibition;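 further: % of control where 0% means no effect; inhibitors lower the polarisation; unlabelled MLL peptide was the positive control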
ClpP mod: qHTS Assay for Activators of ClpP; Potency, µM (titrated, usually from 57.5 µM), without a hit: top-dose activity change, negative = active; actives 1.9% (n = 340,000); purified B. subtilis ClpP, FRET peptide cleavage, 20 min; active = well fitted falling curve with a large enough effect; inconclusive = small, poorly fitted or top-dose-only effect; inactive = no such curve, though single readings can be large or run the other way; further: potency means the concentration at half of the fitted maximal effect; the source files actives as falling curves though it sought activators and does not explain the sign; nearly all actives have a fitted effect of over 65% in size; many hits overshoot -100%
Target sequence (P80244 whole entry, looked up): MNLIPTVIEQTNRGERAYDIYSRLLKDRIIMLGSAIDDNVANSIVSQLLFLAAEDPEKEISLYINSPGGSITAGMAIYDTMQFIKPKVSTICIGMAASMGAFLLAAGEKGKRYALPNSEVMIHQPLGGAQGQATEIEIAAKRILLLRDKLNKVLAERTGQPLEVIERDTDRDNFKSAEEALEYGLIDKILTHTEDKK
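Purified B. subtilis ClpP, 10 microg/mL final in Tris/HCl pH8 with KCl, BSA, glycerol and Tween-20, cleaved an Abz/nitrotyrosine-quenched decapeptide. Fluorescence (ex 320, em 430) was read at 0 and 20 min at room temperature. Delta was normalized to 5.8 microM ADEP and DMSO/no-enzyme controls.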
* marks the source's active call; other numbers are inactive results; ? = inconclusive; nt = no result given; & = joins results of further samples; [ ] = dose if it differs, or a comment.

SMILES | gsp antagonist | TRPML1 agonist | gsp agonist | TRPML1 blocker | Menin MLL FP FL | ClpP mod
CN(C)C(CNC(=O)CN1C(=O)NC2(CCc3ccccc32)C1=O)c1ccco1 (configuration not stated) | 7% | -0.5 | 9% | 10 | 7.9 | -0.8%
Cc1cc(=O)[nH]n(CCO)c1=O | 5% | 0.4 | -9%[15.4 µM] | -1 | 3.8 | nt
CCCOc1ccc(/C(O)=C2/C(=O)C(=O)N(c3ccccn3)C2c2ccc(OC)cc2)cc1C (configuration not stated) | 14% | 0.9 | 21%[15.4 µM] | 1 | 12 | nt
O=C(OCc1cc2ccccc2[nH]c1=O)c1ccc([N+](=O)[O-])cc1 | 7% | 0.3 | -26% | -19 | -0.7 | 0.9%
O=C(NCCNC(=O)C(c1ccccc1)c1ccccc1)c1ccco1 | 5% | -0.7 | 21% | 1 | 1.7 | -1.2%
O=C(CCn1cnnn1)N1CCCC(Nc2ccc(F)cc2)C1 (configuration not stated) | 2% | 0.4 | -6% | -10 | 0.3 | -0.3%
Cc1cccc(Oc2ccc3c(c2)Oc2ccccc2NC3=O)c1 | nt | 1.5 | nt | 1 | nt | -1.0%
O=C(NCc1ccccc1)C(c1ccncc1)N(C(=O)c1ccccn1)c1ccccc1 (configuration not stated) | 9% | -0.6 | -16% | 10 | 1.8 | nt
CCN(CC(=O)NCc1ccc(Cl)cc1)C(=O)c1cc(S(=O)(=O)N2CCOCC2)ccc1C | -6% | 0.3 | 16%[15.4 µM] | 2 | nt | 14µM*
CCC(C)(c1nnnn1-c1c(C)cccc1C)N(N=O)c1cccc(C(F)(F)F)c1 (configuration not stated) | -5% | 1.4 | 1% | 74 | 7.4 | -6.2%
Cc1nn(C)c2c1c(C(F)(F)F)cc(=O)n2Cc1cccc(Br)c1 | nt | 1.1 | nt | 18 | nt | ?
O=C(Nc1c[nH]c(=O)[nH]c1=O)c1cccc(F)c1 | 5% | -0.6 | 12%[15.4 µM] | -6 | -1.7 | -1.7%
COc1ccccc1OCC#CCNC1CCCCC1C (configuration not stated) | 8% | -0.3 | -14% | -8 | -0.7 | -0.6%
O=C1[C@H]2[C@@H](c3ccc(F)cc3)N3C(=O)N(c4cccc(Br)c4)C(=O)[C@@]3(Cc3ccc(Cl)cc3)[C@H]2C(=O)N1C1CCCCC1 | -12% | 0.4 | nt | -1 | -3.4 | -1.2%
CC(C)C(=O)NC(c1ccco1)c1c(O)ccc2ccccc12 (configuration not stated) | -10% | 3.3 | 1% | -20 | 5.5 | 22µM*
BrCCOCCOc1ccc2ccccc2c1 | 9% | -0.8 | -13% | -9 | 4.9 | -1.5%
NC(=O)COC(=O)c1ccccc1Nc1ccc(SC(F)F)cc1 | 10% | 0.0 | -17%[15.4 µM] | -5 | nt | 0.3%
O=C(c1ccc(=O)oc1)N1CCN(C(c2ccccc2)c2ccccc2)CC1 | 7% | 1.3 | ? | -8 | 9.5 | ?
CCc1ccccc1NC(=O)c1ncoc1-c1ccco1 | nt | 0.4 | nt | 8 | nt | -0.1%
Cn1c(=O)c2ccccc2n(Cc2cccc(F)c2)c1=O | 2% | 0.2 | -7% | -22 | 3.7 | nt
O=C(CCCN=C1NS(=O)(=O)c2ccccc21)OCC(=O)c1ccccc1 | -18% | 3.0 | 16%[15.4 µM] | -4 | nt | nt
CCOCCOC(=O)C1=C(C)N(C)C(=O)NC1c1ccccc1F (configuration not stated) | 4% | -0.7 | -45%[inhibitor] | 6 | 0.0 | 5.1%
CCOC(=O)CN1C(=O)C(O)(c2c(C)[nH]c3ccccc23)c2ccccc21 (configuration not stated) | 13% | -0.5 | -13% | 3 | 4.1 | 1.6%
Cc1ccccc1C(=O)/C(C#N)=N/Nc1c(C)n(C)n(-c2ccccc2)c1=O | ? | 1.0 | -4% | -3 | 6.6 | -2.0%
CCOC(=O)c1cc(C(C)(C)C)oc1CN | -1% | 0.4 | -4% | 16 | 2.9 | -1.0%
COc1ccc(C)c2sc(N(CCCN(C)C)C(=O)CS(=O)(=O)c3ccc(F)cc3)nc12 | 7% | -0.7 | -7%[15.4 µM] | 9 | nt | nt
COc1ccc(C(=O)NC(C(=O)NCc2ccccn2)C(C)C)cc1 (configuration not stated) | 6% | 1.3 | 12% | -10 | 2.1 | -3.9%
COC(=O)c1ccccc1NS(=O)(=O)c1ccc(Cl)nc1 | 4% | -0.7 | 6% | -6 | -4.9 | nt
N#C/C(=C\c1ccc(-c2ccccc2Cl)o1)C(=O)Nc1nc2ccccc2s1 | 3% | 1.1 | -14% | 2 | ? | -2.0%
O=C(CN1C(=O)S/C(=C\c2ccc(O)cc2)C1=O)c1ccccc1 | -15% | 0.0 | 14%[15.4 µM] | -12 | 29 | nt
O=C(CNC(=O)c1ccc(Br)cc1)NCCc1nc2ccccc2[nH]1 | 0% | 0.4 | -3% | -4 | 4.4 | 0.7%
O=C(O)CC1(CC(=O)Nc2ccccc2C(=O)c2ccccc2)CCCC1 | ? | 0.3 | -9% | 12 | -1.7 | nt
c1ccc(CCNc2ncnc3ccccc23)cc1 | -21% | -0.1 | 31% | 25 | -0.3 | -5.3%
Cc1ccc(N(CC(=O)NCCc2ccccc2C)S(=O)(=O)N(C)C)cc1 | nt | 0.2 | nt | 8 | nt | -3.3%
O=C(NC1CC1)c1ccc(-c2ccccc2)cc1 | -10% | -0.8 | -9%[15.4 µM] | -10 | 4.6 | -2.9%
Cc1ccccc1NC(=O)CSc1nc2ccccc2o1 | 13% | -0.8 | -28% | 0 | 1.0 | 1.7%
COc1ccc(N2CCN(C(=O)COC(=O)[C@@H](NC(=O)OCc3ccccc3)C(C)C)CC2)cc1 | -16% | 4.2 | -44%[inhibitor] | 7 | nt | -2.5%
COc1ccc(C(=O)N(Cc2cc(OC)c(OC)c(OC)c2)CC2CCCO2)cc1 (configuration not stated) | nt | -0.9 | nt | -2 | nt | -1.6%
COc1cccc(NC(=O)CN(C)C(=O)c2cccc(S(=O)(=O)Nc3ccc(C)cc3)c2)c1 | -19% | 2.1 | -24% | 0 | nt | -0.8%
COc1cc(OC)c(C2C(C(=O)Nc3ccc(C)cc3C)=C(C)Nc3ncnn32)cc1OC (configuration not stated) | 4% | 1.5 | -27% | 5 | 0.9 | 1.8%
Cc1ccc(C(=O)NCCc2nnc3ccc(NCCCN4CCOCC4)nn23)cc1 | 15% | 0.3 | ? | 4 | -0.3 | -12%
COc1cc2c(cc1OC)C(C(=O)NC(C)c1ccccc1)CC(=O)N2 (configuration not stated) | 4% | 0.1 | -47%[inhibitor] | -18 | 0.0 | nt
Cc1ccc2c(c1)-c1nc(-c3ccc(Cl)cc3)cc(-c3coc4ccccc4c3=O)c1CO2 | nt | -0.5 | nt | 54 | nt | -2.1%
CCc1cc2c(NC(Cc3c[nH]c4ccccc34)C(=O)O)nc(C)nc2s1 (configuration not stated) | 2% | 1.4 | 3% | 16 | 5.4 | ?
Fc1cccc(F)c1-n1c(CN2CCCCC2)csc1=S | -9% | -0.4 | 3% | -1 | 0.5 | nt
CCOC(=O)c1ccc(NS(=O)(=O)c2cnc[nH]2)cc1 | 2% | 4.1 | 0% | 5 | -1.0 | -7.5%
CC1(C)CC(=O)C(CC(=O)N2CCC(Cc3ccccc3)CC2)C(=O)C1 | -1% | 0.4 | -5% | 8 | 4.3 | nt
Cc1ccsc1C(=O)C1CCCN(Cc2cc(F)ccc2-n2cccn2)C1 (configuration not stated) | -20% | -0.3 | -13%[15.4 µM] | 62 | -1.9 | -9.2%
O=C(Oc1ccc(=O)[nH]n1)c1ccccc1 | nt | -0.5 | 6% | -17 | nt | 0.7%
CC(CC(=O)Nc1cccnc1)c1ccccc1 (configuration not stated) | 6% | 0.4 | -1% | 20 | -4.2 | 0.4%
O=C(O)c1ccccc1C=NN1CCCCCC1 | -10% | -0.9 | -8% | -7 | nt | nt
Cc1cccc(NC(=O)COC(=O)c2ccc(C)c(S(=O)(=O)N3CCCCC3)c2)c1 | 1% | 1.6 | -35%[inhibitor] | 13 | nt | -0.1%
COc1ccc(Nc2nc(N)c(C(=O)c3ccc(OC)cc3)s2)cc1 | 10% | 2.6 | 6% | 64 | 1.9 | nt
Cc1ccccc1Nc1nnc(-c2ccc(C)c(S(=O)(=O)N3CCCCC3)c2)c2ccccc12 | nt | -0.1 | nt | 49 | nt | -22%
CC(C)(C)C1CCc2c(sc3nc(-c4cc5cc(Cl)ccc5oc4=O)[nH]c(=O)c23)C1 (configuration not stated) | nt | 0.2 | nt | 13 | nt | 2.2%
O=C1CC(C(=O)N2CCN(c3ccccc3O)CC2)CN1Cc1ccccc1 (configuration not stated) | -11% | -0.2 | 1%[15.4 µM] | -14 | nt | -0.2%
Cc1ccc(NC(=S)N(C)C)cc1C | -8% | -0.4 | 7%[15.4 µM] | -7 | 0.2 | -1.4%
O=C(Nc1ccc(F)cc1)c1ccc2c(=O)n3c(nc2c1)CCCCC3 | -19% | 0.7&-0.9 | ? | 2&6 | -1.2 | 0.7%&-2.6%
COc1ccc(OC)c(CCNC(=O)CS(=O)(=O)Cc2nc(-c3cccc(Cl)c3)oc2C)c1 | nt | 3.0 | nt | 19 | nt | -4.3%
CCN(C(=O)c1cc(S(=O)(=O)N2CCCC2)ccc1C)C1CCS(=O)(=O)C1 (configuration not stated) | 7% | 0.2 | -22% | -5 | nt | -0.2%

(more compounds)
SMILES | gsp antagonist | TRPML1 agonist | gsp agonist | TRPML1 blocker | Menin MLL FP FL | ClpP mod
CCOc1ccc(CCNc2nc3c(c(=O)n(C)c(=O)n3C)n2CC)cc1OCC | -2% | 1.3 | -45%[inhibitor] | 8 | -6.5 | -0.4%
CC(=O)OCCSc1c(-c2ccccc2)c2cc(Cl)ccc2[nH]c1=O | 4% | 3.1 | -25% | 35 | 4.7 | -4.8%
O=C(COC(=O)Cc1ccccc1F)NCCNC(=O)COC(=O)Cc1ccccc1F | 5% | 0.9 | -10% | -1 | nt | -1.6%
Cc1ccc(Sc2nc3ccc(C)cn3c(=O)c2/C=N/O)cc1 | 5% | -0.9 | 18%[15.4 µM] | 2 | -0.1 | nt
COc1ccc(CNC(=O)CN(CC2CCCO2)C(=O)CNS(=O)(=O)c2ccc(C)cc2)cc1 (configuration not stated) | -2% | -1.1 | 8% | -6 | 1.0 | 4.7%
CCCn1c(N2CCN(CC(=O)c3c[nH]c4ccccc34)CC2)nc2c1c(=O)[nH]c(=O)n2C | 18% | -0.8 | 11% | 5 | 6.0 | 2.1%
